High-throughput results (PubChem BioAssay)
Vif A3G = HIV-1 Vif–A3G interaction blockers – biochemical, TR-FRET, GST-Vif 1-94, biotin-A3G peptide, dose response retest, primary screen (AID 1117319) | TR-FRET GST-Vif / biotin-A3G peptide binding; higher % means a stronger effect; test concentration not given here; strong numbers were not always called active | one-dose inhibition, %; IC50 in µM for titrated hits | 260,000 tested, 0.57% active;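 active means above the screen mean plus three standard deviations and confirmed in dose response; inconclusive means results disagree or hit not tested in dose response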;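 further: Vif residues 1-94 fused to GST binding biotinylated APOBEC3G peptide 110-148; 0% = full assay without inhibitor and 100% = GST in place of GST-Vif; retest series ran down from 100 µM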
LANA-H2B inh = blocks KSHV LANA binding to histone H2A/H2B; 320,000 tested, 0.6% active; inhibition, % (no concentration beside the values); Q9QR71; cell-free LANA-H2A/H2B peptide, fluorescence polarization; AID 2629; in the data active means inhibition mostly above about 10%, no sharp cut-off; inactive means mostly below about 6.7%;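 further: stock transfer was 7.5 nL into about 10 µL; 0% = median of vehicle wells and 100% = median of positive control wells; one replicate is shown; the record names a cut of 25% in any replicate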
Target sequence (Q9QR71 whole entry, looked up): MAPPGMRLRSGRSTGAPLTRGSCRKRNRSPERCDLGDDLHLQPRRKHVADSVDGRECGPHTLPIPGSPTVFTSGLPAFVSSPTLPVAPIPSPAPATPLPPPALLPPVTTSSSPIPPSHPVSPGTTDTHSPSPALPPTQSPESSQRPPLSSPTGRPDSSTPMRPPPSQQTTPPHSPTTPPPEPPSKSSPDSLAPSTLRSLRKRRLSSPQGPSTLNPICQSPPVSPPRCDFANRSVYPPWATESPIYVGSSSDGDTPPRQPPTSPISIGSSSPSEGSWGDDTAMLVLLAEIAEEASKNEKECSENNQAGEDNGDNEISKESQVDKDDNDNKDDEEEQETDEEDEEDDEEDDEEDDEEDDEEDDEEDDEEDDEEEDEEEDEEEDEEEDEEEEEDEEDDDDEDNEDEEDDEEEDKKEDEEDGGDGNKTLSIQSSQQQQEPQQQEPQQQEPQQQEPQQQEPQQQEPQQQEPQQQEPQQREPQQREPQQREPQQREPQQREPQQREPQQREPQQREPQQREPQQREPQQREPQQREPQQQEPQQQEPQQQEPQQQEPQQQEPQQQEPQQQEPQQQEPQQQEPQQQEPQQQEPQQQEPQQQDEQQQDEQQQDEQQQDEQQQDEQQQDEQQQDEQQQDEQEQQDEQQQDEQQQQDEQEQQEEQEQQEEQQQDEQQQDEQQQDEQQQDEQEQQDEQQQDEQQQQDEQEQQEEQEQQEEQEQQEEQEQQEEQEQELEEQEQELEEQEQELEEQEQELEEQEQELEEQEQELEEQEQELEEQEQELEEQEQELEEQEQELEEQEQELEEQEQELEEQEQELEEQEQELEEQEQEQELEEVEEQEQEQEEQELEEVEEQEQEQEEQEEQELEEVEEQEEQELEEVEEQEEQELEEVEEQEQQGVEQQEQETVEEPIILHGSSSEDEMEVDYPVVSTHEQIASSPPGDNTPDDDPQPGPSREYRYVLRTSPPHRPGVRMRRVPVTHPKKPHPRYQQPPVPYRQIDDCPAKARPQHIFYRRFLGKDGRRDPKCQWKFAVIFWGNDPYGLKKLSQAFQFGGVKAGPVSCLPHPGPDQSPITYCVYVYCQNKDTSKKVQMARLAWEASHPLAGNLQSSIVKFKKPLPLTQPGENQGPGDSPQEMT
Beta2AR agonist = agonists of human beta-2 adrenergic receptor inducing internalization; Am2.2-beta2AR cells, FAP receptor internalization, flow cytometry; reference of the scale not given here; P07550; AID 504454; 340,000 tested, 0.43% active; response, % (concentration not given with the values);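 active means response above a set limit, near 3 SD of response in nonfluorescent compounds, cut at about 42% in these data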;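 further: stock transfer was 100 nL into about 11 µL; a reference agonist was the positive control; negative values mostly stem from fluorescent compounds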
HNF4A DNA FP = change in binding of human HNF4 alpha to DNA | HNF4a-FITC DNA binding, fluorescence polarization, 1 h | activity change, % at 10 µM | 360,000 tested, 0.3% active | AID 1224865; in the data active means activity change above about 30%, passing the limit was not always enough;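 further: controls were the assay level and a saturating level of protein; the project sought stronger binding though the title names inhibitors; some compounds called inactive have numbers as strong as hits; positive values seem to mean higher polarization but the record does not say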
UCH37 inh = inhibitors of human deubiquitinating enzyme UCH37; purified proteasome/UCH37, Ub-AMC cleavage fluorescence; 330,000 tested, 0.33% active; Q9Y5K5; inhibition, % (concentration not given with the values);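 active means mean of two replicates above 20%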;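 further: 0% = compound-free wells with enzyme and 100% = wells lacking proteasome; stock transfer was 100 nL into about 20 µL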
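Assay system: Proteasome-bound UCH37. Buffer or medium: pH 7.4 Tris-HCl (50 mM) with ovalbumin, ATP-MgCl2, DTT. Incubation: 30 min preincubation with enzyme, 25 min cleavage at room temperature. Measured by: fluorescence, ex 355 nm, em 460 nm. Read-out basis: percent inhibition. Control set: wells without proteasome as full block, compound-free enzyme plus substrate as uninhibited.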
Bfl-1 A1 inh = inhibitors of the anti-apoptotic protein A1, read as caspase activation; MEF A1-2A-BIM cells, Caspase-Glo 3/7 luminescence, 3 h; percent of clofoctol response, vehicle zero; AID 2462; 330,000 tested, 0.066% active; caspase activation, % (concentration not given with the values);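 active means over half of replicate activation scores above 10%, or exactly half above 10 with the replicate mean above 10; inconclusive means replicate mean below 10 yet half the replicates above 10; inactive means over half of replicates below 10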;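 further: wells of about 30 µL received 50 nL stock; many hits fall short of the cut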
E coli growth = E. coli growth inhibition; Escherichia coli growth, OD600, 23 h; active compounds read low; OD600 absorbance (no concentration beside the values); 330,000 tested, 0.21% active;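 active means OD600 absorbance below the run mean of sample wells minus 3.6 SD, in any replicate, cut at about 0.56 in these data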;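 further: stock transfer was 300 nL into about 60 µL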
* marks the source's active call; other numbers are inactive results; ? = inconclusive; / = not tested or not shown.

Screens in order – Vif A3G, LANA-H2B inh, Beta2AR agonist, HNF4A DNA FP, UCH37 inh, Bfl-1 A1 inh, E coli growth
Cc1c(C(=O)NC(C)c2ccncc2)oc2ccccc12 (stereo not drawn)
 : 30%, 14, 2, -3.4, 3.2, 0.5, 0.71
CC1SC(c2ccc(F)cc2)N(CCc2ccccc2)C1=O (stereo not drawn)
 : -2%, 3.6, 3, 1.1, -0.5, 0.5, 0.65
COCCN1C(=O)C(=O)/C(=C(/O)c2ccc(S(=O)(=O)N3CCCCC3)cc2)C1c1ccc(OC)cc1 (stereo not drawn)
 : /, 0.7, 2, -3.3, 9.4, 1.4, 0.66
CCOC(=O)C1CCN(C(=O)c2cccc(S(=O)(=O)NCc3ccccc3)c2)CC1
 : 5%, -7.0, 10, 4.6, 5.8, -0.5, 0.65
CC(C)Cc1nc(N2CCN(C(=O)c3ccccc3)CC2)c(C#N)c2c1CCC2
 : 1%, 1.3, 4, 4.2, -25, -0.3, 0.71
CCOC(=O)Cn1nc(C)c([N+](=O)[O-])c1C
 : -1%, -3.4, 8, 2.2, -0.4, 0.2, 0.71
c1csc(-c2cn3c(n2)SCC3)c1
 : 3%, 0.6, -5, 2.2, 1.4, 1.6, 0.7
Cc1ccc2c(C(=O)CN3CCCCC3)c(C)[nH]c2c1
 : -1%, -1.1, -15, -3.0, 1.2, 0.3, 0.7
O=C(CSc1cc(Cl)ccc1Cl)NC1CC1
 : -11%, -11, 3, 6.4, /, -1.3, /
O=C(COc1ccccc1)N1CCN=C1SCc1ccccc1F
 : -7%, 4.2, 6, 0.7, 4.0, 1.1, 0.66
CCCCN(C)C(=O)c1nc2ccccn2c1CN1CCN(c2ncccn2)CC1
 : -9%, 1.0, 9, 1.2, 0.1, 1.6, 0.72
CCc1ccc(-c2cc(C)no2)cc1S(=O)(=O)Nc1ccc(Cl)cn1
 : /, 0.2, -6, 0.1, -0.6, -0.4, 0.7
Cc1ccc2c(c1)N(C)/C(=C/c1cccc[n+]1CCO)S2
 : -2%, -44, -198, 1.4, 13, 0.9, 0.67
CC(C)OC(=O)c1cccnc1SCC(=O)N(C)c1ccccc1
 : -1%, -13, 1, 4.7, 1.1, 0.5, 0.66
O=C(NCC(O)c1ccc([N+](=O)[O-])cc1)Nc1ccccc1 (stereo not drawn)
 : 15%, 0.3, -1, -1.5, 4.7, 0.7, 0.69
CCOC(=O)C1/C(=N\O)CC(C)(O)C(C(=O)OCC)C1c1ccc(OC)c(OC)c1 (stereo not drawn)
 : 23%, 1.0, 3, -1.8, /, 0.5, /
COc1ccc(OC(C)c2ccc(C#N)c(=O)[nH]2)cc1 (stereo not drawn)
 : 5%, 5.6, 6, 0.1, 0.6, -0.1, 0.7
O=C(Nc1ccc(Cl)cn1)c1ccc2ccccc2n1
 : 3%, 4.0, 1, -1.8, 1.9, -0.4, 0.72
O=c1c(=Nc2ccccc2O)c(=O)c2ccccc12
 : 12%, -4.0, 7, -0.8, /, -2.3, /
Cc1cc(-c2ccccc2)[nH]c(=O)c1S(=O)(=O)c1ccccc1
 : 0%, -0.2, -8, -1.7, -74, -0.6, 0.69

Following part.
Screens in order – Vif A3G, LANA-H2B inh, Beta2AR agonist, HNF4A DNA FP, UCH37 inh, Bfl-1 A1 inh, E coli growth
CC(=O)N1CCN(S(=O)(=O)c2cccc(C(=O)Nc3ccccc3N3CCOCC3)c2)CC1
 : ?, 0.4, -11, -2.7, 2.9, 0.8, 0.67
Cc1cc(Cl)c(S(=O)(=O)N2CCSCC2)cc1OCC(=O)NC1CCCCC1
 : ?, 1.8, -4, -6.4, 0.6, 0.1, 0.68
O=C(NCC(c1ccco1)N1CCCCC1)c1cccnc1 (stereo not drawn)
 : -6%, 1.0, -3, 4.8, 1.5, 0.7, 0.7
Cc1ccc(-n2ccn(CC(=O)NCCc3ccccc3)c(=O)c2=O)cc1C
 : /, -4.6, -1, 2.5, -13, -0.2, 0.73
CC(=O)Nc1ccc(NC(=O)C(C)OC(=O)c2cc(S(=O)(=O)N(C)C)ccc2N2CCCC2)cc1 (stereo not drawn)
 : 7%, -2.7, -6, 3.9, 2.7, 0.2, 0.58
CC(=O)NCCc1nc2ccccc2n1CCCCOc1ccccc1
 : -4%, -4.1, 3, -1.2, 5.7, 1.1, 0.69
CCOc1ccc(NC(=O)COC(=O)c2ccc3c(c2)C(=O)N(CCc2ccccc2)C3=O)cc1
 : /, 1.8, 3, 1.4, -1.5, -2.0, 0.71
C[C@H](CO)N1C[C@H](C)[C@@H](CN(C)S(=O)(=O)c2cccs2)Oc2c(NC(=O)C3CC3)cccc2C1=O
 : /, -4.3, -1, -2.9, 3.1, -0.3, /
O=c1[nH]c(=S)[nH]c2scc(-c3ccc(Br)cc3)c12
 : /, 4.6, 1, 1.8, 7.5, 0.0, 0.69
O=S(=O)(c1ccc(Cl)cc1)n1ccc2cccnc21
 : 1%, 0.5, -6, 1.8, 2.7, 0.0, 0.73
CCOc1c2ccoc2nc2c(OC)c(OC)ccc12
 : 12%, -2.7, 8, -1.9, -263, 0.4, 0.74
OC(COCc1cccs1)CN1CCN(c2ccccc2Cl)CC1 (stereo not drawn)
 : /, 5.4, -3, 0.4, 1.8, 1.1, 0.63
O=C(Nc1ccccc1)/C(=C1\CCCN1)[N+](=O)[O-]
 : 2%, -0.9, -19, -1.1, 8.4, -1.6, 0.7
Cc1ccc(C(=O)O)c(C(=O)Nc2nc(C)cs2)c1
 : -1%, -1.8, 2, -1.6, 2.4, -0.7, 0.75
Cc1nnc(NC(=O)c2cccc(F)c2)s1
 : ?, 3.4, 3, -0.6, -1.3, -0.1, 0.74
O=C(NCCCn1ccnc1)/C(=C\c1ccccc1Cl)NC(=O)c1ccccc1
 : /, 6.9, -6, 2.6, 0.2, 0.2, 0.71
CCn1c(=S)sc2nc(C)sc21
 : /, 3.4, -2, -1.5, 13, -0.3, 0.67
O=C1CC(c2ccc(Cl)cc2)SC(N(c2ccccc2)c2ccccc2)=N1 (stereo not drawn)
 : /, 0.9, 27, 0.2, 6.2, -0.8, 0.71
O=C(O)C(c1ccccc1)C(O)C1CC=CCC1 (stereo not drawn)
 : -7%, /, 4, 1.8, 4.9, /, 0.67
Cc1ccc(C)c(NC(=S)N(Cc2cccc(Br)c2)CC2CCC(C(=O)O)CC2)c1 (stereo not drawn)
 : -5%, 2.8, -4, 3.3, 1.3, 1.1, 0.66

Some of the entries so far, bar-delimited:
SMILES | Vif A3G | LANA-H2B inh | Beta2AR agonist | HNF4A DNA FP | UCH37 inh | Bfl-1 A1 inh | E coli growth
OC(COCc1cccs1)CN1CCN(c2ccccc2Cl)CC1 (stereo not drawn) | / | 5.4 | -3 | 0.4 | 1.8 | 1.1 | 0.63
CCn1c(=S)sc2nc(C)sc21 | / | 3.4 | -2 | -1.5 | 13 | -0.3 | 0.67

Other results follow.
Screens in order – Vif A3G, LANA-H2B inh, Beta2AR agonist, HNF4A DNA FP, UCH37 inh, Bfl-1 A1 inh, E coli growth
COc1ccc(OC)c(/C=C/C(=O)N2C(=O)c3cccc(N)c3C2=O)c1
 : /, -7.4, 15, -10, -51, -0.4, 0.64
CC(C)(C)/C(O)=C(/C#N)c1nc2ccccc2[nH]1
 : -1%, -6.0, -7, 5.1, /, 0.1, /
CCOc1ccc(OCC)c(NC(=O)C2CCN(c3cnccn3)CC2)c1
 : -1%, 2.3, -2, 3.6, -12, -0.8, 0.68
Cc1c(CC(=O)O)c(=O)oc2cc(OCc3ccc(F)cc3Cl)ccc12
 : -8%, -5.3, 9, 1.2, -334, -1.0, 0.66
Cc1ccccc1N/C(SCc1ccc(Cl)cc1)=C(/C#N)C(=O)NCc1ccco1
 : ?, -6.3, -15, 1.7, 3.6, -0.3, 0.77
Cc1cc(=O)oc2ccc(OCC(=O)N(Cc3ccc(F)cc3)Cc3ccco3)cc12
 : -6%, -0.3, 61*, 2.7, -19, 0.1, 0.77
COc1cccc(NC(=O)CN(C)C(C)C(=O)Nc2cc([N+](=O)[O-])ccc2Cl)c1 (stereo not drawn)
 : /, 0.6, -6, -1.3, 1.6, -0.1, 0.72
Cn1c(=O)[nH]c(=O)c2c1nc(N1CCCCCC1)n2CCCSc1nnnn1-c1ccccc1
 : /, 4.0, /, /, 2.4, -1.1, 0.64
COc1ccc(N(CC(=O)NCc2cccnc2)S(=O)(=O)c2ccccc2[N+](=O)[O-])c(OC)c1
 : 9%, -2.3, 5, -0.6, 1.2, 0.5, 0.64
C=CCn1c(C)cc(C(=O)COC(=O)c2cncc(Br)c2)c1C
 : -4%, -3.6, 3, 2.9, -1.7, -3.5, 0.68
CCN1CCCC1CNC(=O)C(=O)Nc1ccc(OC)cc1 (stereo not drawn)
 : 4%, -0.2, 0, -1.2, 1.5, -0.4, 0.67
COC(=O)C1CSC(c2ccc(Cl)cc2)N1C(=O)c1ccccc1 (stereo not drawn)
 : 5%, 0.2, 7, 1.0, 2.0, 4.7, 0.66
OC(COc1ccccc1)CN1CCOCC1 (stereo not drawn)
 : 0%, 1.0, 5, -4.4, 3.3, 1.2, 0.67
CN1c2ccccc2C(=O)/C(=C\Nc2ccc(F)cc2F)S1(=O)=O
 : /, -2.0, -8, 2.1, -31, 0.6, 0.69
CC(Oc1ccc(Cl)cc1Cl)C(=O)Nc1cccc(O)c1 (stereo not drawn)
 : /, -4.2, -1, -1.7, 3.4, 0.2, 0.66
Cc1nc[nH]c(=O)c1Br
 : 30%, -1.1, -1, -1.9, -1.7, -0.6, 0.64
COc1cccc(C(O)CC(N)=O)c1 (stereo not drawn)
 : 1%, 2.8, 3, 1.7, 1.7, 1.3, 0.68
O=C1CC(c2cccc([N+](=O)[O-])c2)c2cc3c(cc2N1)CCC3 (stereo not drawn)
 : -12%, -7.2, -1, -1.0, 1.7, -0.8, 0.68
O=C1CSC(=Nc2cccc([N+](=O)[O-])c2)N1
 : 5%, -0.8, 0, 0.3, 2.7, -0.2, 0.65
COc1ccc(-c2cc(=O)oc3cc(OCC(=O)N[C@@H](Cc4c[nH]c5ccccc45)C(=O)O)ccc23)cc1
 : /, 2.1, -13, -1.5, 3.6, -0.4, 0.72

Among those listed so far, four have bromine:
Screens in order – Vif A3G, LANA-H2B inh, Beta2AR agonist, HNF4A DNA FP, UCH37 inh, Bfl-1 A1 inh, E coli growth
O=c1[nH]c(=S)[nH]c2scc(-c3ccc(Br)cc3)c12
 : /, 4.6, 1, 1.8, 7.5, 0.0, 0.69
Cc1ccc(C)c(NC(=S)N(Cc2cccc(Br)c2)CC2CCC(C(=O)O)CC2)c1 (stereo not drawn)
 : -5%, 2.8, -4, 3.3, 1.3, 1.1, 0.66
C=CCn1c(C)cc(C(=O)COC(=O)c2cncc(Br)c2)c1C
 : -4%, -3.6, 3, 2.9, -1.7, -3.5, 0.68
Cc1nc[nH]c(=O)c1Br
 : 30%, -1.1, -1, -1.9, -1.7, -0.6, 0.64

Continuation.
Screens in order – Vif A3G, LANA-H2B inh, Beta2AR agonist, HNF4A DNA FP, UCH37 inh, Bfl-1 A1 inh, E coli growth
Cc1ccc(-c2c(C(=O)N/N=C/c3ccoc3)nnn2-c2nonc2N)cc1
 : 5%, 2.1, -10, -1.3, /, 1.5, /
O=C(CSc1nnc(NC(=O)C2CCC2)s1)Nc1ccc(N2CCOCC2)cc1
 : 23%, -15, -2, -0.9, 2.3, 0.0, 0.72
CSc1nnc(-c2ccccc2N=Cc2c(C)[nH]n(-c3ccccc3)c2=O)c(=O)[nH]1
 : 3%, -0.2, 2, -1.1, 3.1, -0.5, 0.74
O=C(CSc1nnc(-c2ccc(Cl)cc2)n1-c1ccccc1)N/N=C/c1ccccc1C(=O)O
 : 8%, 2.6, -7, -7.3, /, 0.1, /
